H5N1 CPE – MDCK cell protection from H5N1 avian flu; cytopathic effect, luminescence, 72 h; hits give high values; no value below 0 was filed and about half of the inactive calls have no number; reference of the scale not given here; inhibition, % at 50 µM; 96,000 compounds, 0.07% hits; AID 740, 2007; in the data active = inhibition above about 25%
* hit, by the source's call. Only part of the results is shown; rates above refer to the full screens.

How did COc1ccc(CCNC(=O)C2CCN(Cc3nc(-c4ccccc4C)oc3C)CC2)cc1OC do in these assays?
H5N1 CPE: 3.4

What do the screens show for `CCC(c1nnc(SCc2nc3ccccc3s2)n1Cc1ccccc1)N(C)C` (stereo unspecified)?
H5N1 CPE: 0.1

How did COc1ccc(S(=O)(=O)CCC(=O)Nc2c(C)n(C)n(-c3ccccc3)c2=O)cc1 do in these assays?
H5N1 CPE: inactive

How did O=C(Cn1c(CN2CCCCC2)nc2ccccc2c1=O)NCc1ccco1 do in these assays?
H5N1 CPE: 1.5

What do the screens show for `O=C(Cc1ccccc1)Nc1ccccc1CO`?
H5N1 CPE: inactive

Results for CCOc1cc(NS(C)(=O)=O)c(OCC)cc1NC(=O)c1cccs1 ?
H5N1 CPE: 0.1

What do the screens show for `CC(C)CN(C(=O)CSc1nncs1)c1c(N)n(CC(C)C)c(=O)[nH]c1=O`?
H5N1 CPE: inactive

How did Cc1ccc[n+](CC(=O)c2cc3ccccc3oc2=O)c1 do in these assays?
H5N1 CPE: 3.4

Results for COc1cc(-c2nnc(-c3cccnc3)o2)cc(OC)c1OC ?
H5N1 CPE: inactive

How did CCOC(=O)C1CCCN(C/C(O)=C(\C#N)c2nc(-c3ccccc3)cs2)C1 (stereo unspecified) do in these assays?
H5N1 CPE: inactive

How did O=C(Cn1ccc([N+](=O)[O-])n1)NCc1ccco1 do in these assays?
H5N1 CPE: 1.9

What do the screens show for `CCOC(=O)Cc1nnc2c(Nc3ccc(C)cc3)nc3nonc3n12`?
H5N1 CPE: inactive

What do the screens show for `CC(C)NC(=O)COC(=O)c1cc(F)c(F)cc1Cl`?
H5N1 CPE: inactive

What do the screens show for `CC(=O)OCC(=O)Nc1ccc(C(C)=O)cc1`?
H5N1 CPE: inactive

How did Cc1cccc(Cn2c(N(C)CCO)nc3c2c(=O)[nH]c(=O)n3C)c1 do in these assays?
H5N1 CPE: 1.2

Results for COc1cc(C2C(C#N)=C(N)Oc3n[nH]c(-c4ccccn4)c32)cc(OC)c1OC (stereo unspecified) ?
H5N1 CPE: 0.7

How did CC(C)(C)c1ccc(OC2=CS(=O)(=O)c3ccccc32)cc1 do in these assays?
H5N1 CPE: inactive

How did CCc1nnc(NC(=O)CSc2nnc(-c3ccoc3C)n2CC(C)C)s1 do in these assays?
H5N1 CPE: 0.7

What do the screens show for `CCC(=O)OC1CSc2nc3ccccc3n2C1` (stereo unspecified)?
H5N1 CPE: inactive

What do the screens show for `CC(NC(=O)COc1ccc(/C=N/NS(=O)(=O)c2ccccc2)cc1)c1ccccc1` (stereo unspecified)?
H5N1 CPE: 1.0

Results for COC(=O)c1cc(C(C)=O)n2ccccc12 ?
H5N1 CPE: inactive

Results for COC(=O)CNS(=O)(=O)c1ccc(Cc2ccc(S(=O)(=O)NCC(=O)OC)cc2)cc1 ?
H5N1 CPE: inactive

How did O=C(CSc1ncn[nH]1)Nc1ccccc1-c1ccccc1 do in these assays?
H5N1 CPE: 0.7

How did COc1ccc(C2C3=C(CC(C)(C)CC3=O)Nc3cc4c(cc32)OCO4)cc1 (stereo unspecified) do in these assays?
H5N1 CPE: 0.6

What do the screens show for `Cc1ccc(/C(N)=N/OC(=O)c2cccc(F)c2)cc1`?
H5N1 CPE: 0.5

What do the screens show for `O=C(Nc1ccccc1)c1ccc(S(=O)(=O)NCc2ccco2)cc1`?
H5N1 CPE: inactive

What do the screens show for `Cc1cc(CN2C(=O)c3ccccc3C2=O)no1`?
H5N1 CPE: 0.2

What do the screens show for `CC(C)CCP(=O)(O)c1ccccc1`?
H5N1 CPE: inactive

How did O=C(CSc1nc2cc(Cl)ccc2s1)N1CCCc2ccccc21 do in these assays?
H5N1 CPE: 0.8

How did CCn1ncc(C2=NOC(C(=O)NCC(C)C)C2)c1C (stereo unspecified) do in these assays?
H5N1 CPE: 0.3

What do the screens show for `CCC1(CC)C(=O)NC(=O)NC1=Nc1cccc(OC)c1`?
H5N1 CPE: inactive

How did CO/N=C(/CNC(=O)c1cccc(Cl)c1)c1ccc(Cl)cc1 do in these assays?
H5N1 CPE: 0.1

How did CCNC(=S)N/N=C/c1cc(Br)cc(Br)c1OC do in these assays?
H5N1 CPE: 0.3

What do the screens show for `CC(C)(C)SCCNC(=O)CN1C(=O)c2ccccc2S1(=O)=O`?
H5N1 CPE: 0.7

How did COc1ccc(C2C(C#N)=C(N)Oc3cc(C)n(Cc4ccco4)c(=O)c32)cc1 (stereo unspecified) do in these assays?
H5N1 CPE: 0.9

What do the screens show for `CCCN(CCC)c1nc(C)cc(C(C#N)c2nc3ccccc3o2)n1` (stereo unspecified)?
H5N1 CPE: inactive

How did CC(C)N(Cc1nc(-c2ccccc2)no1)C(=O)C1CCCCC1 do in these assays?
H5N1 CPE: 0.7

How did Cc1cc(NC(=O)COc2ncnc3sc(C)c(C)c23)no1 do in these assays?
H5N1 CPE: 2.0

What do the screens show for `Cn1c(=O)c2c(nc(N3CCN(c4ccccn4)CC3)n2Cc2ccccc2Cl)n(C)c1=O`?
H5N1 CPE: inactive

What do the screens show for `CCCOP(=O)(c1ccc(N(C)C)cc1)C(O)c1ccccc1OC` (stereo unspecified)?
H5N1 CPE: 0.1

What do the screens show for `CC1CC(NC(=O)c2ncn[nH]2)CC(C)(C)C1` (stereo unspecified)?
H5N1 CPE: 1.0

How did Cc1cc(=O)n2nc(-c3ccccc3)sc2c1C#N do in these assays?
H5N1 CPE: 2.8

Results for CN(C)S(=O)(=O)c1ccc(/C(O)=C2/C(=O)C(=O)N(Cc3cccnc3)C2c2ccco2)cc1 (stereo unspecified) ?
H5N1 CPE: inactive

What do the screens show for `CC(C(=O)N1CCCCC1)n1sc2ccccc2c1=O` (stereo unspecified)?
H5N1 CPE: inactive

How did CCOC(=O)N1CCN(C(=O)CSc2nnc(CNC(=O)c3c(F)cccc3Cl)o2)CC1 do in these assays?
H5N1 CPE: 0.7

How did COC(=O)CSc1nnc(-c2ccncc2)n1N do in these assays?
H5N1 CPE: inactive

What do the screens show for `O=C(Nc1nc2ccccc2n1CCN1CCCCC1)c1ccc(Cl)cc1`?
H5N1 CPE: inactive

How did CCCOc1ccc(N2C(=O)CC(N3CCN(c4nc5ccccc5s4)CC3)C2=O)cc1 (stereo unspecified) do in these assays?
H5N1 CPE: inactive

What do the screens show for `O=C(O)CCCC(=O)OCCCCc1cccs1`?
H5N1 CPE: 1.0

Results for CS(=O)(=O)N(Cc1ccco1)Cc1ccccc1Cl ?
H5N1 CPE: 1.6

Results for Cc1cc(=O)oc(C)c1C(=O)NC12CC3CC(CC(C3)C1)C2 ?
H5N1 CPE: inactive

What do the screens show for `COc1cccc(C2/C(=C(\O)c3ccc4c(c3)OCCO4)C(=O)C(=O)N2CCN(C)C)c1` (stereo unspecified)?
H5N1 CPE: inactive

How did O=C(CCNS(=O)(=O)c1cccc2nsnc12)N1CCc2ccccc21 do in these assays?
H5N1 CPE: 2.1

How did COc1ccc(Sc2ccccc2CN(C)C)cc1OC do in these assays?
H5N1 CPE: inactive

What do the screens show for `Cn1c(=O)c2cn3c(c2n(C)c1=O)C(c1ccccc1)CC(c1ccccc1)=N3` (stereo unspecified)?
H5N1 CPE: 2.1

How did O=[N+]([O-])c1ccc(N2CCN(C(=S)NC3CCCCC3)CC2)cc1 do in these assays?
H5N1 CPE: 0.1

What do the screens show for `COc1ccc(NC(=O)NCc2ccncc2)cc1`?
H5N1 CPE: 0.9

What do the screens show for `CN1CCN(CCCNC(=O)c2cc3c(=O)oc4ccccc4c3s2)CC1`?
H5N1 CPE: 0.4

How did CC(=O)c1c(C)[nH]c(C(=O)COC(=O)CN(C)S(=O)(=O)c2ccc(Cl)cc2)c1C do in these assays?
H5N1 CPE: 0.5

Results for COc1ccc(CCNC(=O)c2cc(C(C)C)on2)cc1OC ?
H5N1 CPE: 1.1

Already shown: an excerpt of the list.
How did COc1ccc(CCNC(=O)C2CCN(Cc3nc(-c4ccccc4C)oc3C)CC2)cc1OC do in these assays?
H5N1 CPE: 3.4

What do the screens show for `CCC(c1nnc(SCc2nc3ccccc3s2)n1Cc1ccccc1)N(C)C` (stereo unspecified)?
H5N1 CPE: 0.1

How did COc1ccc(S(=O)(=O)CCC(=O)Nc2c(C)n(C)n(-c3ccccc3)c2=O)cc1 do in these assays?
H5N1 CPE: inactive

How did O=C(Cn1c(CN2CCCCC2)nc2ccccc2c1=O)NCc1ccco1 do in these assays?
H5N1 CPE: 1.5

What do the screens show for `O=C(Cc1ccccc1)Nc1ccccc1CO`?
H5N1 CPE: inactive

Results for CCOc1cc(NS(C)(=O)=O)c(OCC)cc1NC(=O)c1cccs1 ?
H5N1 CPE: 0.1

What do the screens show for `CC(C)CN(C(=O)CSc1nncs1)c1c(N)n(CC(C)C)c(=O)[nH]c1=O`?
H5N1 CPE: inactive

How did Cc1ccc[n+](CC(=O)c2cc3ccccc3oc2=O)c1 do in these assays?
H5N1 CPE: 3.4

Results for COc1cc(-c2nnc(-c3cccnc3)o2)cc(OC)c1OC ?
H5N1 CPE: inactive

How did CCOC(=O)C1CCCN(C/C(O)=C(\C#N)c2nc(-c3ccccc3)cs2)C1 (stereo unspecified) do in these assays?
H5N1 CPE: inactive

How did O=C(Cn1ccc([N+](=O)[O-])n1)NCc1ccco1 do in these assays?
H5N1 CPE: 1.9

What do the screens show for `CCOC(=O)Cc1nnc2c(Nc3ccc(C)cc3)nc3nonc3n12`?
H5N1 CPE: inactive

What do the screens show for `CC(C)NC(=O)COC(=O)c1cc(F)c(F)cc1Cl`?
H5N1 CPE: inactive

Remaining list, next part:
How did CCOC(=O)N1CCN(S(=O)(=O)c2cc(Br)cc3c2N(C(=O)CC)CC3)CC1 do in these assays?
H5N1 CPE: 1.6

What do the screens show for `COc1ccc(C2C(C(=O)NC(C)C)c3ccccc3C(=O)N2C)cc1OC` (stereo unspecified)?
H5N1 CPE: inactive

Results for Cc1cccc(OCC(=O)N/N=C\c2cc3c(cc2[N+](=O)[O-])OCO3)c1C ?
H5N1 CPE: inactive

How did O=C1CCc2cc(S(=O)(=O)N3CCN(c4cccc(Cl)c4)CC3)ccc2N1 do in these assays?
H5N1 CPE: 0.1

How did O=S(=O)(Nc1cccc2cn[nH]c12)c1ccc(F)cc1 do in these assays?
H5N1 CPE: 2.5

How did Cn1cnnc1SCC(=O)N1CCC(Cc2ccccc2)CC1 do in these assays?
H5N1 CPE: inactive

Results for Cc1ccccc1-c1nc(CS(=O)(=O)CC(=O)NCCCN2CCCC2)c(C)o1 ?
H5N1 CPE: 0.6

Results for Cn1c(=O)c2c(nc(SCC(=O)O)n2Cc2cccc(C(F)(F)F)c2)n(C)c1=O ?
H5N1 CPE: 0.8

How did CC(C)NC(=O)C(C)n1cccc1C(=O)c1ccccc1 (stereo unspecified) do in these assays?
H5N1 CPE: inactive

What do the screens show for `O=c1c2ccccc2nc(-c2ccccc2)n1-c1ccncc1`?
H5N1 CPE: 0.3

Results for O=S(=O)(c1ccc(Nc2ccc(-c3ccc4c(c3)OCCO4)nn2)cc1)N1CCCC1 ?
H5N1 CPE: inactive

Results for COC(=O)Cc1ccc(NC(=O)c2ccc(C(C)(C)C)cc2)cc1 ?
H5N1 CPE: inactive

Results for Cc1ccc2[nH]c(=O)c(C(c3nnnn3C(C)(C)C)N(Cc3ccco3)CC3CCCO3)cc2c1 (stereo unspecified) ?
H5N1 CPE: inactive

What do the screens show for `O=C(NC1CCCC1)c1cnn2c(C(F)(F)F)cc(-c3ccc4c(c3)OCO4)nc12`?
H5N1 CPE: inactive

Results for CCOC(=O)Cc1nc2ccccc2[nH]1 ?
H5N1 CPE: 0.7

Results for CC(Sc1nnc(-c2ccc(C(C)(C)C)cc2)n1C)C(N)=O (stereo unspecified) ?
H5N1 CPE: inactive

Results for COc1cc(C(=O)N2CCN=C2c2ccccc2)cc(OC)c1OC ?
H5N1 CPE: 0.5

Results for COC(=O)c1ccc(N2CCN(C)CC2)c(NC(=O)COc2ccc(OC)cc2)c1 ?
H5N1 CPE: 0.8

What do the screens show for `O=C1CC(=O)CC(c2ccccc2Cl)C1`?
H5N1 CPE: inactive

How did CCCc1nc2ccc(NC(=O)NCCC(=O)OCC)cc2c(=O)n1Cc1cccc(Cl)c1 do in these assays?
H5N1 CPE: 2.4

How did O=C(NCc1ccc2c(c1)OCO2)c1cccc(S(=O)(=O)N2CCOCC2)c1 do in these assays?
H5N1 CPE: 0.3

What do the screens show for `Cc1nn(Cc2ccc([N+](=O)[O-])cc2)c(=O)n1-c1ccc(F)cc1`?
H5N1 CPE: inactive

What do the screens show for `Brc1ccccc1OCCCCCN1CCCC1`?
H5N1 CPE: 0.1

What do the screens show for `CCc1cccc2c(C=C(C#N)C#N)cn(CC(=O)N3CCCCCC3)c12`?
H5N1 CPE: inactive

What do the screens show for `Cc1cccc2nc(Cn3c(=O)n(CCC(=O)NCc4ccco4)c(=O)c4sccc43)cc(=O)n12`?
H5N1 CPE: 6.4

How did Cc1ccc(S(=O)(=O)/N=C(\CN2CCOCC2)N2CCOCC2)cc1 do in these assays?
H5N1 CPE: 0.3

How did Cn1c(CN2CCCC2)nc2cc(NC(=O)Nc3ccccc3)ccc21 do in these assays?
H5N1 CPE: 1.3

What do the screens show for `O=C(NCc1ccco1)c1cnc2ccccn2c1=O`?
H5N1 CPE: 5.0

How did CSc1nc2ccc(N3C(=O)C4CCCCC4C3=O)cc2s1 (stereo unspecified) do in these assays?
H5N1 CPE: inactive

How did CCc1n[nH]c(=S)n1/N=C/c1ccc2c(c1)OCO2 do in these assays?
H5N1 CPE: inactive

Results for CCc1noc(C)c1C(=O)Nc1nc(-c2ccc(Cl)cc2Cl)c(C)s1 ?
H5N1 CPE: inactive

What do the screens show for `CCOc1ccc(Br)cc1/C(C)=N\NC1=NCCN1`?
H5N1 CPE: inactive

How did COc1ccc(Cn2nnc(C(=O)Nc3ccc(F)cc3)c2N)cc1 do in these assays?
H5N1 CPE: inactive

Results for O=Cc1cc2ccccc2nc1SCc1ccc(Cl)cc1 ?
H5N1 CPE: 8.7

What do the screens show for `CCOc1ccc(NC(=O)NCCN2C(C)CCCC2C)cc1` (stereo unspecified)?
H5N1 CPE: 1.4

What do the screens show for `CCOC(=O)c1ccc(N2C(=O)CC(N3CCC(C(=O)OCC)CC3)C2=O)cc1` (stereo unspecified)?
H5N1 CPE: inactive

What do the screens show for `O=C(Nc1nccs1)c1cn(-c2ccccc2)nc1-c1ccccc1`?
H5N1 CPE: inactive

How did O=C(NC(Nc1ncccn1)C(=O)c1ccccc1)c1ccccc1 (stereo unspecified) do in these assays?
H5N1 CPE: inactive

Screening data from PubChem BioAssay.
